Compound activity as filed in PubChem BioAssay.
Calb FLC – C. albicans growth modulation with fluconazole; growth inhibition, % (no concentration beside the values); AID 1979; C. albicans CaCi-2 (fluconazole-resistant clinical isolate) + fluconazole, Alamar Blue growth, 48 h; hit rate 0.57% among 300,000;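 active = most replicates above 75%; inconclusive = exactly half above 75%; inactive = most below 75%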;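 note: all wells also contain fluconazole at 8 µg/ml as a sub-toxic cotreatment; 0% = median of DMSO wells and 100% = median of geldanamycin control wells; wells of about 8 µL received 7.5 nL stock; the first replicate is given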
A1 inh – inhibitors of the anti-apoptotic protein A1, read as caspase activation | MEF A1-2A-BIM cells, Caspase-Glo 3/7 luminescence, 3 h; percent of clofoctol response, vehicle zero | hit rate 0.066% among 330,000 | caspase activation, % (concentration not given with the values);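 active = over half of replicate activation scores above 10%, or exactly half above 10 with the replicate mean above 10; inconclusive = replicate mean below 10 yet half the replicates above 10; inactive = over half of replicates below 10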;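 note: wells of about 30 µL received 50 nL stock; many hits fall short of the cut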
Beta apoptosis – beta cell apoptosis inhibition; INS-1E cytokine-induced death, ATP luminescence, 48 h; percent of positive-control rescue, neutral wells zero; protection from apoptosis, % (no concentration beside the values); hit rate 0.8% among 300,000;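 active = all replicates at 75% or more, or half of them and the mean; inconclusive = half reach 75% but not the mean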;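 note: 0% = cytokine-treated negative control wells and 100% = positive control rescue; higher means more ATP so stronger rescue from cytokine killing; wells of about 40 µL received 100 nL stock; the first replicate is given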
AF4-AF9 inh – MLL-AF4/AF9 protein interaction inhibition | P42568 | AlphaScreen, biotin-AF4 peptide binding to FLAG-AF9 | inhibition, % at 10 µM | hit rate 0.47% among 350,000 | AID 651704;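 active = every replicate reaching a set inhibition limit, whatever the replicate mean, cut at about 25% in these data; inconclusive = mean inhibition reaches that limit but some replicates miss it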;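 note: 0% = plate neutral control median and 100% = total signal loss; the record names both 10 and 1 µM as test concentration; the first replicate is given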
Target sequence (P42568 whole entry, looked up): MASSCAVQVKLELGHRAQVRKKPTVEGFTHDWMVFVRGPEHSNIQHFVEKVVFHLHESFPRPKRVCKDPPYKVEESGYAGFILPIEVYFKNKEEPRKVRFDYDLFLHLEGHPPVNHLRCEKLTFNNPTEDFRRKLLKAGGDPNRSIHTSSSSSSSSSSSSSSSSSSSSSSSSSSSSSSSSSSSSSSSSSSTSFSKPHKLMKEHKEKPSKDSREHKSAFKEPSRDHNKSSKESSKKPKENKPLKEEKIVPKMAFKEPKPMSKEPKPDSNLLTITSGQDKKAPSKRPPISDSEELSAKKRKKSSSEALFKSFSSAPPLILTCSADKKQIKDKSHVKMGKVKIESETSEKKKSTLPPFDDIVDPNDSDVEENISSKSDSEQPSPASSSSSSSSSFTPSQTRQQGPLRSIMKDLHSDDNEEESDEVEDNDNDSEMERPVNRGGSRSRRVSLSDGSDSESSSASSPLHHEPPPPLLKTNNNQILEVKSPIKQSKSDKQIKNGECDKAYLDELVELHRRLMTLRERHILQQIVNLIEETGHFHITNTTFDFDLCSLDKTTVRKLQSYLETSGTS
LANA-H2A inh – blocks KSHV LANA binding to histone H2A/H2B; AID 2629; hit rate 0.6% among 320,000; inhibition, % (test concentration not listed); cell-free LANA-H2A/H2B peptide, fluorescence polarization; in the data active = inhibition mostly above about 10%, no sharp cut-off; inactive = mostly below about 6.7%;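 note: stock transfer was 7.5 nL into about 10 µL; 0% = median of vehicle wells and 100% = median of positive control wells; one replicate is shown; the record names a cut of 25% in any replicate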
Vif TR-FRET – HIV-1 Vif–A3G interaction blockers – biochemical, TR-FRET, GST-Vif 1-94, biotin-A3G peptide, dose response retest, primary screen (AID 1117319); hit rate 0.57% among 260,000; inhibition, %; hits with a dose series show IC50 in µM; TR-FRET GST-Vif / biotin-A3G peptide binding; higher % means a stronger effect; test concentration not given here; strong numbers were not always called active;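 active = above the screen mean plus three standard deviations and confirmed in dose response; inconclusive = results disagree or hit not tested in dose response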;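 note: Vif residues 1-94 fused to GST binding biotinylated APOBEC3G peptide 110-148; 0% = full assay without inhibitor and 100% = GST in place of GST-Vif; retest series ran down from 100 µM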
RanGTP-Imp inh – inhibitors of RanGTP-importin-beta interaction, primary screen, biochemical, FRET, CFP-Ran, YFP-importin-beta, homogeneous; cell-free CFP-Ran/YFP-importin-beta FRET ratio; inhibition, % (no concentration beside the values); hit rate 1.1% among 300,000; AID 2216;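 active = most replicates above 15%; inconclusive = exactly half above 15%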;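 note: 0% = DMSO wells and 100% = Ran loaded with GDP instead of GTP; wells of about 40 µL received 100 nL stock; the first replicate is given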
T cruzi inh – blocks replication of Trypanosoma cruzi. T. cruzi beta-gal in NIH3T3, luminescence, 90 h. AID 1885. inhibition, % (no concentration beside the values). hit rate 1.4% among 300,000;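 active = mean inhibition across valid replicates above about 55%, limit read from the data; inconclusive = mean below that limit but half or more replicates reach it; inactive = mean below it, under half of replicates reach it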;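 note: signal also drops with host cell toxicity which is not excluded here; 0% = plate median of DMSO wells and 100% = zero luminescence signal; higher percent means less beta-gal luminescence so fewer parasites; stock transfer was 50 nL into about 50 µL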
* marks the source's active call; other numbers are inactive results; ? = inconclusive; . = no result given; & = joins results of further samples.

SMILES | Calb FLC | A1 inh | Beta apoptosis | AF4-AF9 inh | LANA-H2A inh | Vif TR-FRET | RanGTP-Imp inh | T cruzi inh
Cc1ccccc1OCc1nnc(SCC(=O)NC2CCCCC2)o1 | -13.1 | -0.3 | -0.9 | 0.6 | -3.5 | . | 0.8 | -3.4
COc1ccc2cc(C(=O)N3CCC(Cc4ccccc4)CC3)[nH]c2c1 | 2.5 | -2.2 | -5.0 | -5.9 | -2.6 | -6.5% | 1.9 | 0.3
Cc1ccc(/C=N/n2c(=O)c(C(C)(C)C)nn3cnnc23)cc1 | 15.8 | 0.1 | 5.3 | . | -2.9 | . | -0.8 | -14.0
CC(=O)c1cccc(Nc2nc(-c3ccccc3)nc3ccccc23)c1 | 0.0 | -0.2 | . | 1.2 | -0.7 | . | -4.8 | -9.6
CC(=O)CSc1nnc(-c2ccc3c(c2)OCO3)o1 | 2.7 | -2.2 | -1.6 | . | -4.5 | 3.9% | -0.4 | -9.9
Cc1cccc(-n2c(SCC(=O)N3CCN(c4ccccn4)CC3)nnc2N2CCOCC2)c1 | . | -0.5 | -1.3 | -2.1 | -3.2 | -2.1% | . | .
Cc1ccc2cc(C#N)c(SCC(=O)Nc3ccc4sc(C)nc4c3)nc2c1 | -1.2 | . | . | . | . | 3.7% | -1.3 | 4.8
CCc1ccccc1Nc1nc(N)nc(CSc2nnnn2C)n1 | 9.7 | 0.1 | 2.7 | -2.0 | 1.0 | 0.1% | -2.4 | -22.8
COc1cccc(-c2ncc3ccccc3c2COC(=O)N2CCOCC2)c1 | . | 0.4 | 0.0 | -2.2 | 0.8 | . | . | .
CCC(Oc1ccccc1)C(=O)O/N=C(\N)c1ccc(OC)c(OC)c1 (stereo not drawn) | -19.1 | 0.0 | 1.9 | -9.2 | 2.7 | -1.9% | -4.1 | 14.4
Cc1ccc(C2C3=C(CCCC3=O)Nc3nc(SCC(=O)NCc4ccco4)[nH]c(=O)c32)cc1 (stereo not drawn) | 0.6 | 0.7 | 4.5 | . | -5.9 | 18.1%&6.5% | -1.3 | -21.1
O=C(CN1C(=O)/C(=C/c2ccccc2Cl)SC1=S)NC1C=CS(=O)(=O)C1 (stereo not drawn) | 4.8 | 0.5 | 8.7 | 0.8 | -1.1 | . | -1.8 | -13.3
O=C(Nc1ccccc1C(=O)N1CCOCC1)C1CCC(=O)N1C1CCCC1 (stereo not drawn) | -5.0 | 0.7 | 1.6 | . | 0.1 | 3.4% | 1.9 | -2.0
CCc1ccc(NC(=S)N(CCCN2CCOCC2)Cc2ccccn2)cc1 | 1.6 | -1.0 | -11.0 | . | -5.2 | . | 5.7 | -15.6
COc1ccc(OCC(=O)N/N=C(/C)Cc2ccccc2)cc1 | -5.6 | -0.4 | -4.6 | -1.3 | -6.6 | 4.5% | 1.4 | -16.8
CC(OC(=O)c1ccc2ccccc2n1)C(=O)Nc1ccc(N2CCOCC2)cc1 (stereo not drawn) | . | -0.9 | 0.3 | . | 3.4 | 7.2% | -1.1 | -17.8
COc1cccc(-n2c(C)n[nH]c2=O)c1 | 1.0 | -1.1 | -3.2 | . | 2.9 | -3.5% | 3.2 | -3.0
CCCCCOc1ccc(/C=c2\sc3nc(=O)c(-c4ccccc4)nn3c2=O)cc1OC | -4.2 | -1.8 | -2.3 | -2.7 | 7.6 | . | 1.0 | 12.3
CCOC(=O)N1CCC(NC(=O)c2cc(C(=O)Nc3ccc(OC)c(OC)c3)ccc2CO)CC1 | 2.6 | 1.1 | -4.0 | . | 5.1 | 3.2% | -5.1 | -7.5
COc1ccc(CCC(=O)OCC(=O)Nc2sccc2C(N)=O)cc1 | . | -1.1 | -2.6 | -1.1 | 1.3 | 6.8% | . | .
COc1cc2c(cc1OC)C(C(=O)NCCN(C)C)C(c1cccs1)N(C)C2=O (stereo not drawn) | 7.1 | 0.5 | -6.1 | 0.6 | -0.6 | 1.8% | 0.4 | 6.4
O=C(Nc1ccccc1C(F)(F)F)N1CCN(c2ccc3nnc(-c4ccc(F)cc4)n3n2)CC1 | 6.1 | . | . | . | . | 4.8%&-9.6% | -5.1 | 26.3
CC(C)(C)c1ccc(C(=O)Nc2nnc(SCC(=O)NCC3CCCO3)s2)cc1 (stereo not drawn) | 0.5 | -0.6 | -0.3 | -0.3 | -2.1 | 32.9% | 2.0 | 1.1
O=C(CN1CCOCC1)N1c2ccccc2Sc2ccccc21 | -6.2 | 0.3 | -7.5 | 1.0 | -0.6 | -12.7% | ? | -2.7
COc1ccc(Cn2nnc3c(C)n[nH]c(=O)c32)cc1 | -0.8 | -0.4 | 1.3 | 4.3 | 4.5 | . | -2.6 | -13.0
O=C(NCCc1ccc(Cl)cc1)C1CCN(S(=O)(=O)N2CCCC2)CC1 | 26.0 | 0.1 | 1.7 | . | -4.6 | 8.8% | 0.7 | 14.0
CC1CC(C)(C)NC(=S)N1CCCC(=O)Nc1ccc(F)c(F)c1 (stereo not drawn) | 4.1 | -0.4 | -7.2 | 1.7 | -0.2 | 17.7% | -3.6 | -17.9
Cc1ccc(C(=O)NCC(=O)Nc2ccc(S(=O)(=O)Nc3cc(C)nc(C)n3)cc2)cc1 | . | 0.2 | -2.3 | -3.0 | 2.1 | . | . | .
Cn1nccc1NC(=O)Nc1cccc([N+](=O)[O-])c1 | -5.7 | -0.5 | -0.8 | 5.3 | 7.7 | 14.5% | -5.0 | -1.5
OC(COCC1COc2ccccc2O1)CN1CCN(c2ccccn2)CC1 (stereo not drawn) | 3.6 | 0.8 | 0.2 | -4.9 | 0.7 | -3.0%&-4.5% | 8.5 | 6.1
CCOC(=O)C1=C(N)n2c(s/c(=C\c3cccnc3)c2=O)=C(C(=O)OC)C1c1cccnc1 (stereo not drawn) | -3.2 | 0.5 | 0.3 | . | 1.1 | . | -1.5 | -19.1
O=C(CSc1ccc2ccccc2c1)Nc1ncccn1 | -10.2 | 1.6 | -7.6 | . | 1.3 | . | 2.1 | 0.1
Nc1ccc2nc(CCc3ccccc3)[nH]c2c1 | -18.0 | -1.7 | 3.2 | 7.7 | 1.1 | . | -2.0 | 3.4
O=S(=O)(Nc1cccc(-n2cnnn2)c1)c1ccc(Cl)cc1 | 31.1 | 0.9 | -3.5 | 5.0 | 0.0 | -1.6% | -4.7 | -5.8
O=C(O)c1ccccc1/C=N/NC(=S)NCc1ccccc1 | 2.3 | 0.8 | -3.5 | 2.3 | 4.3 | -2.2% | -0.7 | -7.3
Oc1cccc(-c2nc3ccc4ccccc4c3c3c2CCC3)c1 | 31.8 | 0.0 | 5.3 | . | 0.0 | -1.5% | 2.2 | 29.2
N=C1C(c2nc3ccccc3s2)=C(O)CN1NC(=O)c1ccco1 | -2.5 | 0.5 | 1.4 | -1.2 | -3.2 | 15.2% | -0.2 | 2.4
COc1cccc([C@@H]2CC=C(C(=O)O)[C@H](c3ccc(F)cc3)N2S(=O)(=O)c2ccc(C)cc2)c1 | . | -0.7 | 7.2 | -6.4 | -1.4 | . | . | .
CS(=O)(=O)NCc1nnc(SCc2ccc(C(F)(F)F)cc2)o1 | 3.6 | -0.2 | -1.5 | -0.5 | 1.0 | -2.4% | 4.6 | -7.2
COc1ccc2oc(C(=O)OCC(=O)N(C)C3CCCCC3)c(C)c2c1 | 8.3 | 1.9 | -1.4 | -35.4 | -1.8 | . | -4.3 | -6.0

2 compounds picked at random from the list so far, as already listed:
SMILES | Calb FLC | A1 inh | Beta apoptosis | AF4-AF9 inh | LANA-H2A inh | Vif TR-FRET | RanGTP-Imp inh | T cruzi inh
O=C(NCCc1ccc(Cl)cc1)C1CCN(S(=O)(=O)N2CCCC2)CC1 | 26.0 | 0.1 | 1.7 | . | -4.6 | 8.8% | 0.7 | 14.0
COc1cccc([C@@H]2CC=C(C(=O)O)[C@H](c3ccc(F)cc3)N2S(=O)(=O)c2ccc(C)cc2)c1 | . | -0.7 | 7.2 | -6.4 | -1.4 | . | . | .

Continued.
SMILES | Calb FLC | A1 inh | Beta apoptosis | AF4-AF9 inh | LANA-H2A inh | Vif TR-FRET | RanGTP-Imp inh | T cruzi inh
CCN1C(=O)C2(C(C#N)=C(N)Oc3c2c(C)nn3-c2ccccc2)c2ccccc21 (stereo not drawn) | 6.4 | 2.3 | -8.4 | 1.9 | -2.3 | 4.0% | 3.0 | 3.8
Cc1oc(-c2cccc(Cl)c2)nc1CN1CCC(C(=O)NC2CC2)CC1 | -0.1 | 0.3 | -8.1 | -8.2 | -2.0 | . | 2.6 | 2.5
COc1cc(CN2CCN(c3ccc(C)cc3)CC2)cc([N+](=O)[O-])c1O | 16.3 | 0.1 | -3.6 | . | 1.4 | 1.9% | -2.0 | 11.0
C[C@H]1C=C(C(=O)NCc2ccccc2)O[C@@H](OCc2ccc(CO)cc2)C1 | -2.9 | 0.3 | -0.8 | 6.9 | 0.4 | 2.5% | -2.9 | 20.0
Cc1ccc(C)c(S(=O)(=O)N2CCN(CC(=O)Nc3sccc3C#N)CC2)c1 | 7.1 | 1.5 | -4.7 | 0.4 | -13.6 | -3.0% | -1.6 | 12.2
C=CCSC1=N/C(=C\c2cccnc2)C(=O)N1c1ccc(OC)cc1 | 14.9 | 0.0 | -0.4 | . | -9.4 | . | -1.0 | 18.2
Nc1ccc2nc(-c3ccccc3)cnc2c1 | -4.6 | -7.2 | 4.4 | -29.3 | 3.8 | . | -47.1 | .
CSc1nc2c(c(=O)[nH]1)CCCC2 | -0.7 | 0.3 | -6.7 | . | -3.6 | 3.0% | -2.1 | 4.6
O=C(Nc1cccnc1)c1ccc([N+](=O)[O-])s1 | . | -0.2 | 77.8* | 0.9 | 1.0 | 3.6% | . | .
N#Cc1c(C(F)(F)F)cc(=O)[nH]c1SCC(=O)O | 2.3 | 0.9 | -7.5 | -2.1 | -1.0 | 0.2% | 3.5 | -19.8
CCn1ccc(C(=O)NC2C(=O)N3C(C(=O)O)=C(C)CSC23)n1 (stereo not drawn) | -0.7 | -0.5 | 4.7 | . | -14.1 | 4.4% | 0.6 | -22.1
COc1ccccc1/C=C/C(=O)Nc1ccc(S(=O)(=O)Nc2cc(C)nc(C)n2)cc1 | -3.0 | -0.2 | 0.0 | 2.1 | -3.7 | . | -0.8 | 0.8
COC(=O)C(NC(C)=O)(Nc1nc(C)cs1)C(F)(F)F (stereo not drawn) | 6.7 | 0.8 | -6.9 | . | 1.8 | 1.7% | 1.5 | -8.5
CC(NC(=O)CCc1nnc(Cc2cccc(C(F)(F)F)c2)o1)C1CC1 (stereo not drawn) | 7.1 | -1.0 | 0.4 | 3.8 | 6.2 | . | 2.0 | 5.7
O=C(CSc1nnc(NC(=O)c2c(F)cccc2F)s1)NCc1ccccc1 | -4.7 | -0.3 | 1.2 | -3.0 | -7.9 | . | 0.6 | 0.5
COc1cc([N+](=O)[O-])ccc1NC(=S)NNC(=O)c1ccc2c(c1)OCO2 | 1.3 | -1.2 | 2.9 | -0.6 | 3.2 | -7.9% | 3.2 | 16.5
CCOc1cc(/C=N/NC(=O)c2cc(C3CC3)[nH]n2)ccc1O | 20.3 | 1.9 | 4.1 | -0.2 | -2.7 | 4.5% | 1.5 | -5.2
CC(=O)Oc1ccc(/C=C2/Oc3ccccc3C2=O)cc1 | -0.8 | -0.4 | . | 2.1 | 2.6 | 5.5% | -2.2 | 20.8
